# GALR2 ag: agonists of human galanin receptor 2 (GALR2); O43603; GALR2-expressing cells, agonist activation read-out; activation, %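 (tested at 5 µM)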; 0.48% of 140,000 active; AID 803;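 active = above mean plus 3 SD of all compounds, about 5% in these data, not always enough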;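 also: 0% = vehicle buffer wells and 100% = reference agonist at full effect; tested in CHO reporter cells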
# Target sequence (O43603 whole entry, looked up): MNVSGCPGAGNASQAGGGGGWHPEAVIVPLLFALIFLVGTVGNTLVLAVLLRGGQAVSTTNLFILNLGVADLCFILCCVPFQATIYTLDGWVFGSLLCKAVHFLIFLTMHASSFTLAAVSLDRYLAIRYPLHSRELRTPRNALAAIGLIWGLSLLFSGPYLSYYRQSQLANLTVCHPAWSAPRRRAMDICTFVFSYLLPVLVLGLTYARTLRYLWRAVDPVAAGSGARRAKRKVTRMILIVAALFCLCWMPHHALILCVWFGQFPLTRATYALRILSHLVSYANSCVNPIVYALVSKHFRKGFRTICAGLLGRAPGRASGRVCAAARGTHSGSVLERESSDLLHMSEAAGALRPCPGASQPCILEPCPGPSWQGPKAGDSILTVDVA
# RGS16-Gao HTS: modulates binding between human RGS16 and Galphao; AID 1441; O15492+P09471; 0.38% of 220,000 active; binding response (% of control), % at 10 µM; bead-based flow cytometry RGS16-Galphao binding, fluorescence; actives lie on both sides;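 active = below 25% or above 175%, edge rows of some plates excepted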;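 also: Galphao activated by GDP with aluminum fluoride before binding; 100% = wells without compound and 0% = beads without RGS; some results beyond the cut were filed as inactive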
# Target sequence (O15492 whole entry, looked up): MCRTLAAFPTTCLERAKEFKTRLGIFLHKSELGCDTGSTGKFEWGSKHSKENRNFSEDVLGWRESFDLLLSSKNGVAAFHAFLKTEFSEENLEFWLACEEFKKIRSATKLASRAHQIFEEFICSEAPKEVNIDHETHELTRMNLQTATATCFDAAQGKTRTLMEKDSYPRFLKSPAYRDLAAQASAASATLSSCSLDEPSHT
# Target sequence (P09471 whole entry, looked up): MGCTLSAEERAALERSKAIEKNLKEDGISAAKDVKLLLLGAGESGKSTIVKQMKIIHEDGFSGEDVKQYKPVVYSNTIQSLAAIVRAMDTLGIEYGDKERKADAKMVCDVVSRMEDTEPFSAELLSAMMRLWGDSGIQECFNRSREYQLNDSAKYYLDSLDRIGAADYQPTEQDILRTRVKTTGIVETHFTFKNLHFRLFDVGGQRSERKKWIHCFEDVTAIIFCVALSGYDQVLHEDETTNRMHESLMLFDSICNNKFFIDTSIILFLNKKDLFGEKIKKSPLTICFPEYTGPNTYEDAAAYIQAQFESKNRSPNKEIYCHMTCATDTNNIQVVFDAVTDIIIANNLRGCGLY
# Insulin prom inh: TRM-6 insulin promoter activity inhibition | 0.9% of 130,000 active | TRM-6 cells (human fetal islet line), insulin promoter-eGFP reporter, imaging; reporter expression induced with tamoxifen | inhibition, % at 2 µM;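 active = inhibition above the mean plus 3 SD, with well images judged a real hit on visual review, cut at about 60% in these data, passing the limit was not always enough; inconclusive = inhibition over the cutoff but images rejected on review; inactive = inhibition not above the cutoff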
# PKD1 inh: PKD1 (human) kinase inhibition; Q15139; PKD1 kinase fluorescence polarization assay; inhibition, %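 (about 10 µM by stock and volumes)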; 0.056% of 200,000 active; AID 797;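 active = inhibition of 50% or more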;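 also: controls were vehicle for no effect and a reference inhibitor for full effect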
# HSV augment: HSV replication enhancement. maximum fold increase. 0.005% of 220,000 active. HSV replication augmentation in cells, fold increase;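 active = peak rise of 1.5-fold or more in the series; inconclusive = self-fluorescent or not available for retest; tested in PC3 cells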;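 also: first round at 10 µM; read as green reporter fluorescence; hits show the peak of a series up to 25 µM; 1 = signal of infected wells without compound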
# Insulin prom inh cell count: also measured in Insulin prom inh; calls as there; normalized cell count, %; measured here: cell count, toxicity; reference of the scale not given here;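 cells exposed to compound for 48 h; stained nuclei by imaging scaled within each plate; lower means fewer cells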
# HSV augment primary fold: also measured in HSV augment; calls as there; fold increase; compound at 10 µM; measured here: primary screen fold increase 10 uM; tested in PC3 cells;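 GFP signal in the first replicate; 1 = infected wells without compound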
# * hit, by the source's call; i = inactive; ? = inconclusive; nt = not tested or not shown. Outcome played no part in choosing rows; 1.3% or so of the library scored in one or more.
No.	mol	GALR2 ag	RGS16-Gao HTS	Insulin prom inh	Insulin prom inh cell count	PKD1 inh	HSV augment	HSV augment primary fold
1	CCc1ccccc1NC(=O)Cn1nc(C(F)(F)F)c2c1CCC2	-3.6	97.8	-10.5	129.8	-7.8	i	1.01
2	CCc1ccc(NC(=O)CSc2nnc(-c3n[nH]c4ccccc34)n2-c2ccccc2)cc1	-0.8	34.5	nt	nt	-5.5	i	1.06
3	CN(C)C(=S)c1ccc2ccccc2n1	-0.6	107.5	nt	nt	-4.4	i	0.84
4	CCOC(=O)CNC(=O)Nc1cc(C(C)(C)C)nn1-c1ccccc1	-2.1	98.5	25.0	134.9	2.5	i	0.95
5	O=c1c2cccnc2n(-c2ccccc2)n1Cc1ccc(Cl)cc1	nt	114.2	55.6	171.1	3.0	i	1
6	COc1cccc(/C=N/NC(=O)C(C)Sc2ccccc2)c1 (centres undefined)	nt	103.3	nt	nt	0.4	i	1.03
7	O=C(COC(=O)c1cc2c(s1)CCCC2)NCc1ccccc1Cl	-0.7	99.9	nt	nt	-3.8	i	0.95
8	Cc1ccc2cc(CN(Cc3ccc4c(c3)OCO4)Cc3nnnn3Cc3ccco3)c(=O)[nH]c2c1	0.6	104.5	nt	nt	-8.1	i	1.07
9	Cn1nnnc1SCC(=O)Nc1ccc(Br)cc1Cl	-1.3	106.7	-1.3	55.7	-5.5	i	1.09
10	COc1ccc(CCNC(=O)CSc2ncn[nH]2)cc1	-1.7	85.3	85.7*	33.5*	7.8	i	0.97
11	Cc1cccc(C)c1NC(=O)C1=C(O)c2ccccc2N(C)S1(=O)=O	-0.7	99.1	nt	nt	-3.6	i	0.85
12	Cc1cc(NC(=O)CCCn2cnc([N+](=O)[O-])n2)no1	nt	101.4	nt	nt	-2.1	i	0.94
13	Cc1ccc(NC(=O)CSc2nc(=O)cc(N)n2CCc2ccccc2)cc1	nt	101.2	nt	nt	-3.5	i	0.98
14	COc1cc(C)c(Cl)cc1S(=O)(=O)n1cnc(C)c1	-1.6	99.3	6.8	110.3	2.2	i	0.6
15	COc1ccc(NC(=O)Nc2ccc(Cc3ccncc3)cc2)c(OC)c1	-1.7	107.5	33.3	121.6	-5.1	i	0.91
16	CC(NC(=O)COc1ccc(/C=N/NC(=O)C(=O)Nc2ccccc2Br)cc1)c1ccccc1 (centres undefined)	-2.6	95.4	nt	nt	-7.8	i	0.8
17	COc1ccccc1CN1CCNC(=O)C1CC(=O)NCc1csc(C)n1 (centres undefined)	nt	104.0	nt	nt	3.6	i	1.22
18	CCOc1ccc(Br)cc1S(=O)(=O)NCCN(C)C	-1.0	110.2	6.7	104.0	8.5	i	0.98
19	CCOC(=O)CNC(=O)CSc1nnnn1-c1ccc(C)c(C)c1	-1.4	95.7	22.6	82.2	0.6	i	1.03
20	CCOC(=O)Nc1c(Cl)n(C)c(=O)n(C)c1=O	nt	103.0	nt	nt	nt	i	0.81
21	COCc1cc(C)nc(SCC(=O)N2CCC(C)CC2)c1C#N	-1.8	94.3	45.0	75.5	-5.6	i	1.18
22	CCCCCCN(C(=O)CCl)c1ccccc1	nt	86.0	nt	nt	nt	i	0.58
23	COc1ccccc1NC(=O)CSc1nnc(-c2ccccn2)n1Cc1ccco1	-1.6	99.8	-87.1	42.5	-1.5	i	1.18
24	O=C(CSc1nnc(-c2cccnc2)o1)Oc1ccccc1	-2.1	104.9	11.1	76.6	0.9	i	0.99
25	COc1ccc(Cl)cc1NC(=O)C/C(C)=N/NC(=O)CC#N	0.5	100.7	28.6	56.2	-3.1	i	0.88
26	Cc1ccc(S(=O)(=O)N(CC(=O)N2CCCCC2)c2cccc(C)c2)cc1	-4.4	105.8	-114.0	104.2	-0.8	i	1.08
27	O=C(CC1C(=O)N(c2ccccc2)C(=S)N1c1ccccc1)c1ccc(Br)cc1 (centres undefined)	0.3	102.6	-21.4	133.5	-2.1	i	1.03
28	Cn1c(=O)c2c(c3ccccc31)OC(C)(C)CC2	-1.3	101.2	11.5	77.2	-6.2	i	0.86
29	COc1ccc(/C=C/C(=O)OCC(=O)Nc2ccc(C)cc2)cc1S(=O)(=O)N1CCOCC1	-1.4	104.2	-10.3	147.0	-10.3	i	0.96
30	O=S1(=O)N=C2CCCCCN2C(c2ccc(Cl)cc2)N1 (centres undefined)	nt	101.8	-5.6	138.7	-0.7	i	0.89
31	CCOC(=O)CSc1nnc(CNC(=O)c2ccc(S(=O)(=O)N(C)C)cc2)n1C	nt	104.0	-5.6	126.6	-0.6	i	1.09
32	CCCCn1c(SCc2nc3ccccc3s2)nc2ccccc2c1=O	0.7	101.8	nt	nt	-4.4	i	0.93
33	CCc1cccc(CC)c1NC(=O)c1ccc(-n2cncn2)nc1	nt	102.5	nt	nt	-5.3	i	1.01
34	Cc1sc2ncnc(N3CCC(C(=O)Oc4cccc(Cl)c4Cl)CC3)c2c1C	nt	108.1	0.0	149.7	-8.7	i	0.85
35	Cc1sc2nc(N3CCOCC3)[nH]c(=O)c2c1-c1ccccc1	-1.1	97.3	0.0	141.3	-0.6	i	0.94
36	CCCNC(=O)NC1C(NC(=O)NCCC)N(C)C(=O)N1C (centres undefined)	0.2	108.3	31.4	130.3	-5.3	i	0.98
37	CCCCN(C)Cc1c(C)[nH]c2ccc(C)cc2c1=O	-1.1	97.8	29.7	108.0	2.6	i	0.88
38	COC(=O)C1CCN(C(=O)Cc2ccccc2OC)CC1	nt	97.0	nt	nt	-1.1	i	0.99
39	COc1ccc(C2C(C(=O)N3CCOCC3)=C(C)NC3=C2C(=O)CC(C)(C)C3)cc1O (centres undefined)	0.9	107.9	-17.3	85.7	7.2	i	0.71
40	CC(C)CN(CC(C)C)C(=O)CS(=O)(=O)Cc1ccccc1	-0.7	101.3	-200.0	99.4	-2.4	i	0.99
41	COc1ccc(-c2oc(NC(=O)CCl)c(C#N)c2-c2ccc(OC)cc2)cc1	-2.0	30.0	-3.3	98.9	-3.0	i	0.757
42	CN(C)S(=O)(=O)Oc1ccccc1C(=O)Nc1cccc(C(F)(F)F)c1	-0.6	95.0	0.0	114.5	-0.5	i	0.91
43	COc1cc(NC(=S)N2CCOCC2)c(OC)cc1Cl	nt	103.4	nt	nt	nt	i	1.06
44	O=C(CN1CCN(CC(=O)Nc2ccc(OCc3ccccc3)cc2)CC1)Nc1ccc(F)cc1	-0.8	nt	nt	nt	0.1	i	1.04
45	CC(C)NC(=S)N1CCN(Cc2ccc3c(c2)OCO3)CC1	nt	106.1	nt	nt	-1.3	i	1.03
46	CCCOc1ccc(CCc2n[nH]c(=S)n2-c2ccccc2)cc1	nt	91.8	nt	nt	-10.5	i	0.96
47	Cc1cc(C)c2c(N)c(-c3nnc(SCc4ccc(Cl)cc4)n3C)sc2n1	nt	98.9	nt	nt	nt	i	0.99
48	N#C/C(=C\c1ccc(OCc2ccccc2)cc1)C(=O)Nc1nc2c(s1)CCN(Cc1ccccc1)C2	-0.5	68.3	-23.1	57.8	-6.2	i	1.01
49	COc1ccc(NS(=O)(=O)c2ccc(N3CCOCC3)c(NC(=O)C(C)C)c2)cc1	nt	100.1	nt	nt	-2.2	i	0.99
50	CC(C(=O)Nc1ccccn1)N1C(=O)C2C3C=CC(C3)C2C1=O (centres undefined)	-2.1	97.9	-125.0	59.3	14.9	i	0.72

# (next part)
No.	mol	GALR2 ag	RGS16-Gao HTS	Insulin prom inh	Insulin prom inh cell count	PKD1 inh	HSV augment	HSV augment primary fold
51	CC(=O)NC1C(=O)N=C(SCC(=O)NC(C)c2ccccc2)NC1=O (centres undefined)	-0.3	98.5	nt	nt	1.3	nt	nt
52	O=C1c2ccccc2C(=O)N1CCC(c1ccc(F)cc1)c1ccco1 (centres undefined)	-2.1	85.0	-56.2	142.4	-4.3	i	0.9
53	COCCCN(C(=O)Cc1ccc(Cl)c(Cl)c1)c1c(N)n(Cc2ccccc2)c(=O)[nH]c1=O	nt	100.3	nt	nt	nt	i	0.84
54	CCOc1ccc(Oc2c(/C=N/NC(=O)COc3ccccc3OC)c(C)nn2-c2ccccc2)cc1	0.6	111.8	-46.7	71.5	-16.0	i	0.85
55	CCN(CC)S(=O)(=O)c1ccc2c(c1)nc(CCC(=O)OCC(=O)N1CCc3ccccc31)n2C	-2.0	99.2	-42.9	106.1	-2.6	?	nt
56	Cc1ccsc1-c1nc(-c2ccccc2)c(-c2ccccc2)[nH]1	-0.1	108.2	nt	nt	-0.3	i	0.87
57	CCCCCn1c(CNC(=O)COC)nc2ccccc21	-0.8	111.2	nt	nt	10.3	i	0.9
58	COc1cccc(/C=C/C(=O)OCC(=O)NCC2CCCO2)c1 (centres undefined)	0.0	99.8	nt	nt	-8.7	i	1
59	CC1CC1C(=O)OCC(=O)NCc1ccccc1Cl (centres undefined)	-1.4	59.1	30.3	119.9	-1.2	i	0.9
60	O=C(Cc1ccccc1)N/N=C/c1ccc2cccc(O)c2n1	nt	108.8	nt	nt	5.6	i	0.94
61	CCN(Cc1ccccc1)C(c1ccc(Cl)cc1)c1nnnn1C(C)(C)C (centres undefined)	-2.6	104.2	34.1	125.8	-11.4	i	1.05
62	Cc1nc(-c2ccc(Cl)cc2)sc1C(=O)NNC(=O)C(C)C	nt	99.8	nt	nt	nt	i	0.97
63	COc1ccc(-c2nnc3ccc(SCc4ccccc4)nn23)cc1	nt	94.5	nt	nt	4.3	nt	nt
64	O=C(CSc1nnc(COc2cccc3ccccc23)o1)N1CCN(C(=O)c2ccco2)CC1	0.0	121.6	44.0	102.0	-7.3	i	1.01
65	CC#CCCc1nc2ccccc2c(=O)n1N	-0.4	108.3	50.0	142.6	-3.2	nt	nt
66	O=C1CCC(c2ccccc2)N1C(=O)c1cccnc1 (centres undefined)	-0.6	97.4	-57.1	123.8	-9.7	i	1.2
67	O=C(COC(=O)c1ccc(S(=O)(=O)NCc2ccco2)cc1)NCC1CCCCC1	-0.9	25.4	-8.1	123.8	1.4	i	1.01
68	Clc1ccc(-c2nnc3cccc(Cl)n23)c(Cl)c1	0.3	100.0	27.0	117.0	1.2	nt	nt
69	O=C(COc1cccc2cccnc12)N/N=C1\SCC(=O)N1CCc1ccccc1	nt	105.0	nt	nt	-5.0	i	0.83
70	COc1ccc(NC(=O)c2c(Cl)cnn2C)c(C)c1	nt	101.5	nt	nt	-5.2	i	0.99
71	COc1ccc(-c2nnc(SCC(=O)Nc3cc(S(=O)(=O)N4CCCCC4)ccc3Cl)n2N)cc1	-1.6	64.0	-37.0	43.5	-6.8	i	0.63
72	COc1cc(C(=O)NCC(C)C)c([N+](=O)[O-])cc1OC	-2.5	100.5	-51.9	54.8	-2.2	i	1.06
73	CCCS(=O)(=O)N1CCC(C(=O)NCC2CCCO2)CC1 (centres undefined)	-4.1	102.9	nt	nt	-4.3	i	0.93
74	O=C(CSc1nncn1-c1cccnc1)N1CCOCC1	0.8	103.7	-8.3	129.8	-8.9	i	0.93
75	c1ccc(C2C3=C(CCCC3)Nc3ncnn32)cc1 (centres undefined)	-2.0	103.6	nt	nt	-4.8	i	0.95
76	CCOC(=O)c1sc(NC(=O)CSc2nc(-c3ccco3)cc(C(F)(F)F)n2)c(C(=O)OC)c1C	-2.4	90.8	-13.3	93.9	-2.2	i	1.02
77	O=C(Nc1cnccn1)C1c2ccccc2Oc2ccccc21	-3.2	100.9	-223.1	78.5	2.6	i	1.15
78	O=C(Nc1nccs1)C1CCCN(S(=O)(=O)c2cccnc2)C1 (centres undefined)	-0.7	102.0	nt	nt	-7.7	i	1.01
79	O=C(O)c1ccccc1-c1ccccc1C(=O)Nc1ccc2c(c1)[nH]c(=O)c1ccccc12	nt	112.7	nt	nt	nt	i	0.99
80	Cc1ccc(S(=O)(=O)NCC(=O)OCC(=O)Nc2cccc(S(=O)(=O)NC3=NCCCCC3)c2)cc1C	nt	98.8	nt	nt	nt	i	1.11
81	Cc1c(/C=N/NC(=O)c2ccccc2O)c2ccccn2c1C(=O)c1ccc(F)cc1	-1.8	101.1	-83.9	125.5	2.2	i	0.89
82	CCCNCc1cc(Br)ccc1OCC(=O)NCCc1ccccc1	0.3	123.9	-10.3	89.6	-3.6	i	0.89

# Shown field by field: 2 of the compounds above
[9] Cn1nnnc1SCC(=O)Nc1ccc(Br)cc1Cl
  GALR2 ag = -1.3 | RGS16-Gao HTS = 106.7 | Insulin prom inh = -1.3 | Insulin prom inh cell count = 55.7 | PKD1 inh = -5.5 | HSV augment = i | HSV augment primary fold = 1.09

[23] COc1ccccc1NC(=O)CSc1nnc(-c2ccccn2)n1Cc1ccco1
  GALR2 ag = -1.6 | RGS16-Gao HTS = 99.8 | Insulin prom inh = -87.1 | Insulin prom inh cell count = 42.5 | PKD1 inh = -1.5 | HSV augment = i | HSV augment primary fold = 1.18

# From PubChem BioAssay
